From PubChem
ClpP mod = qHTS Assay for Activators of ClpP | ATP-dependent Clp protease proteolytic subunit (Bacillus subtilis (strain 168)), P80244 | purified B. subtilis ClpP, FRET peptide cleavage, 20 min | Potency, µM (top dose mostly 57.5 µM), without a hit: at the highest dose activity change, negative = active | actives 1.9% (n = 340,000) | AID 651965, 2013; active = well fitted falling curve with a large enough effect; inconclusive = small, poorly fitted or top-dose-only effect; inactive = no such curve, though single readings can be large or run the other way; further: the source files actives as falling curves though it sought activators and does not explain the sign; nearly all actives have a fitted effect of over 65% in size; many hits overshoot -100%
Target sequence (P80244 whole entry, looked up): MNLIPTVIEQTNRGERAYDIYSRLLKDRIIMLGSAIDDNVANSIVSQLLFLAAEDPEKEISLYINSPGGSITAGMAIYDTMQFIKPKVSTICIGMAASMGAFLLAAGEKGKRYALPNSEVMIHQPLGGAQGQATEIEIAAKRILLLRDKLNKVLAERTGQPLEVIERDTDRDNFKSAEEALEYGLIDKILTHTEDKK
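ClpP 10 microg/mL final, pH 8 Tris/KCl buffer with BSA, glycerol, Tween-20; compound pinned in; FRET-FV substrate; RT 20 min; Ex320/Em430; ΔFRET vs ADEP 5.8 microM, DMSO, no enzyme.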
* hit, by the source's call; ? = inconclusive. Potency means the concentration at half of the fitted maximal effect.

compound	ClpP mod
Cc1ccc(NC(=O)CSc2nc3ccc(NC(=O)c4cccc(Cl)c4)cc3s2)c(C)c1	?
COc1ccc(C(=O)CCC(=O)Nc2ccccc2C)cc1	1.7%
CC(=O)c1ccc(NC(=O)c2cc(-c3ccc(Cl)c(Cl)c3)on2)cc1	-5.2%
COc1ccc(NS(=O)(=O)c2ccc(NC(=O)N3CCCC3)cc2)cc1	-12%
O=C(NCCc1ccc(Cl)cc1)c1c2c(nc3ccccc13)C(=O)N(C1CCCCC1)C2	-13%
Cc1cccc(CNC(=O)c2cccc(NC(=O)N3CCSc4ncccc43)c2)c1	-18%
CCC(=O)N1CCc2cc(Br)cc(S(=O)(=O)N3CCN(c4ccccc4)CC3)c21	-0.2%
Cc1ccc2nc(Cl)c3cc(C(=O)NC4CCCCC4)sc3c2c1	-10%
Cc1cccc(N(CC(=O)NC(C)c2ccccc2)S(=O)(=O)c2ccccc2)c1C (stereo unspecified)	-4.0%
CN(C)CCN(C(=O)c1ccco1)c1nc2c(F)cc(F)cc2s1	-3.0%
N#Cc1ccccc1OCC(=O)N1CCN(c2ccccc2)CC1	-0.1%
COc1ccccc1OCC(=O)Nc1c(C(=O)c2ccc(F)cc2)oc2ccccc12	3.6%
CC(=O)Nc1c(C)nn(-c2ccccc2)c1N1CCC(C(=O)Nc2ccc(F)cc2Cl)CC1	1.3%
CCCCNC(=O)CCCN1C(=O)CCn2nc(-c3cccn3C)cc21	1.4%
Cc1ccc(Cn2c(CCNC(=O)C(C)C)nc3ccccc32)cc1	0.3%
CC1CCCCN1C(=O)CSc1nnc(-c2cccc(Cl)c2)o1 (stereo unspecified)	-2.1%
CCc1ccccc1S(=O)(=O)Cc1ccc(C(=O)NCc2ccc(Cl)cc2)o1	-2.3%
Oc1ccc(/C=C/c2nc(-c3ccccc3O)n(-c3ccccc3)n2)c(O)c1	?
Oc1c(C(c2ccc(Cl)cc2)N2CCC3(CC2)OCCO3)sc2nc(-c3ccco3)nn12 (stereo unspecified)	1.4%
CCOC(=O)c1sc(NC(=O)/C=C/c2ccc(C(C)C)cc2)c(C(=O)OCC)c1C	?
COc1ccccc1NC(=O)CN(c1ccc(C(C)C)cc1)S(=O)(=O)c1c(C)noc1C	0.1%
Cc1ccc(Cn2ccnc2SCC(=O)NCc2ccc(F)cc2)cc1	-0.4%
Cc1ccc(NC(=O)c2ccc(C)c(S(=O)(=O)N3CCCCCC3)c2)cc1	0.0%
Cc1ccc(Cc2nc3ccccc3nc2SCC(=O)Nc2cccc(C(F)(F)F)c2)cc1	-7.9%
COc1ccc(N2CCN(C(=O)CCS(=O)(=O)c3cc4c(cc3Cl)NC(=O)CO4)CC2)cc1	-0.8%
O=C(C1CCCN(S(=O)(=O)c2ccc(Br)s2)C1)N1CCN(c2ccc(F)cc2)CC1 (stereo unspecified)	-1.1%
CCn1c2c(c(=O)n3ncc(C(=O)Nc4cc(Cl)ccc4C)c13)CN(Cc1ccc(OC)cc1)CC2	-8.7%
COC(=O)c1sc(N2C(=O)c3oc4ccc(C)cc4c(=O)c3C2c2ccc(OC)cc2)nc1C (stereo unspecified)	-1.6%
COC(=O)c1c(C)sc(-c2c(-c3cccc(Cl)c3)[nH]c3c2c(=O)[nH]c(=O)n3C)c1O	1.2%
Cc1cc(NC(=O)C2CCN(S(=O)(=O)c3ccc(Br)s3)CC2)ccc1Br	-0.2%
Cc1cccc(NS(=O)(=O)c2ccc3oc(=O)c4ncn(C)c4c3c2)c1C	0.0%
CCc1ccc(NC(=O)c2ccc3c(c2)nnn3CC)cc1	-2.8%
Cc1ccccc1-c1noc(-c2ccc(NCC3CCCO3)c([N+](=O)[O-])c2)n1 (stereo unspecified)	-0.5%
O=C(NCc1ccc(F)cc1)C1CCN(C(=O)c2cnn(-c3ccccc3)c2-n2cccc2)CC1	-0.8%
Cc1ccc(-c2ccc(=O)n(CC(=O)Nc3ccc(F)c(Cl)c3)n2)cc1C	-1.0%
COCCn1c(C)cc(O)c(C(c2ccccc2)N2CCN(C)CC2)c1=O (stereo unspecified)	0.1%
Cc1ccc(NS(=O)(=O)c2cc(-c3cnc(C4CC4)o3)ccc2C)cc1Cl	0.1%
O=[N+]([O-])c1ccc(C=C2c3ccccc3-c3ccccc32)cc1	0.4%
Cc1ccc(OCC(=O)NCC2(N3CCN(C)CC3)CCCCC2)cc1C	0.7%
Cc1ccc(NCc2nnc3n2CCCCC3)cc1Cl	-1.8%
CCN(CC)CCOC(=O)c1ccc(NC(=O)c2cc3c(s2)-c2ccccc2OC3)cc1	4.0%
COc1cccc(NC(=O)C(=O)NCC(c2ccc3c(c2)OCO3)N2CCN(C)CC2)c1 (stereo unspecified)	-1.6%
CCOC(=O)c1cc(-c2ccccc2)n(-c2cccc(C(=O)Nc3cccc(C(C)=O)c3)c2)c1C	-16%
COc1ccc(-c2noc(COc3ccc(C)cc3C)n2)cc1OC	-6.9%
COc1ccc(Cn2ccn(CC(=O)Nc3cc(C)ccc3C)c(=O)c2=O)cc1	-1.9%
COc1ccc(C(=O)NCC(c2ccc(Cl)cc2)N2CCCCC2)cc1 (stereo unspecified)	0.6%
Cc1cc(C)cc(-n2ccn(Cc3ccccc3C)c(=O)c2=O)c1	-1.6%
COc1ccc(CNc2nc(SCc3ccc(Cl)cc3)nc3ccccc23)cc1	-0.1%
CC1=C(C(N)=O)C(c2ccc(C(C)C)cc2)n2nc(SCc3ccccc3)nc2N1 (stereo unspecified)	-2.8%
CCCCNC(=O)c1cnc2c(-c3ccc(OCC)c(OCC)c3)c(C)nn2c1-c1ccccc1	1.6%
COc1ccc(Nc2ncc3c(n2)CCN(C(=O)OC(C)(C)C)C3)cc1	-3.7%
Cc1cccc(C)c1NC(=O)CSc1nc2ccccc2c2nc(CCc3c(C)n[nH]c3C)nn12	0.3%
O=c1[nH]cc(C#Cc2ccccc2)c2ncncc12	-11%
COc1cccc2sc(N3CCN(C(=O)CCS(=O)(=O)c4ccc(F)cc4)CC3)nc12	-1.2%
Cc1nn(C)c2c1c(C(F)(F)F)cc(=O)n2CC(=O)N1CCCCC1	4.4%
CCOC(=O)c1c(C)oc2nc(C)nc(N(CC(C)C)CC(C)C)c12	-4.2%
COc1ccc(Nc2ncnc3onc(C)c23)cc1Cl	0.2%
CC(=O)OCc1cnc(C)c2oc(=O)c(C(=O)Nc3ccc(F)cc3C)cc12	1.7%
COc1ccc(Br)cc1CNC(=O)CN1C(=O)CSc2ccc(S(=O)(=O)N3CCOCC3)cc21	-0.6%
O=C(Cn1cc(C(=O)c2ccccc2)c(=O)c2cc3c(cc21)OCCO3)Nc1ccc(F)c(F)c1	-3.0%

Reprinted at random: two compounds from above, in no set order.
compound	ClpP mod
COc1ccc(Nc2ncc3c(n2)CCN(C(=O)OC(C)(C)C)C3)cc1	-3.7%
O=C(Cn1cc(C(=O)c2ccccc2)c(=O)c2cc3c(cc21)OCCO3)Nc1ccc(F)c(F)c1	-3.0%

Further structures:
compound	ClpP mod
Cc1cc(C)cc(NC(=O)Cc2csc(C)n2)c1	1.3%
O=C(NCc1ccccc1)C(=O)Nc1c2c(nn1-c1ccc(F)cc1)CSC2	-0.2%
COc1ccc(-c2noc(-c3ccccc3OCC(=O)Nc3ccc(C(C)=O)cc3)n2)cc1	-0.8%
Cc1cccc(C(=O)Nc2sc3c(c2C(=O)N2CCCCC2)CCC(C)C3)c1 (stereo unspecified)	-0.1%
CCCCc1nn2c(C)c(-c3ccc(OCC)cc3)nc2s1	0.5%
CCOc1ccc(C2C(C(=O)Nc3ccc(C)cc3C)=C(C)Nc3c(C(=O)Nc4ccc(C)cc4)cnn32)cc1OC (stereo unspecified)	-0.4%
CS(=O)(=O)N(CC(=O)NCCc1ccccc1)c1cc(C(F)(F)F)ccc1Cl	-3.4%
COc1cc(NC(=O)C2CCN(S(=O)(=O)c3c(C)noc3/C=C/c3cccs3)CC2)cc(OC)c1	-6.4%
COc1cc(NC(=O)Cn2c(=O)nc(-c3ccccc3F)c3cc(Cl)ccc32)cc(OC)c1	-5.8%
COc1ccccc1CNc1nc2ccc(C)cc2n2nnnc12	?
Cc1cccc(NC(=O)c2oc3ccccc3c2NC(=O)c2cc(=O)c3ccccc3o2)c1	-0.6%
Cc1nn(-c2ccc(F)cc2)c(-n2cccc2)c1C(=O)NCCCN1CCN(c2ccccc2F)CC1	0.4%

Sorted by molecular weight (lowest first): some entries from above
compound	ClpP mod
Cc1nn(C)c2c1c(C(F)(F)F)cc(=O)n2CC(=O)N1CCCCC1	4.4%
O=C(NCc1ccccc1)C(=O)Nc1c2c(nn1-c1ccc(F)cc1)CSC2	-0.2%
CCc1ccccc1S(=O)(=O)Cc1ccc(C(=O)NCc2ccc(Cl)cc2)o1	-2.3%

More structures follow.
Compound,ClpP mod
COc1cc2nc(SCC(=O)Nc3cccc(C)c3)n3nc(CCn4c(C)nc5ccccc54)nc3c2cc1OC,-6.4%
COc1ccc(NC(=O)CSc2nnc(-c3ccncc3)n2-c2ccccc2)cc1,-2.0%
Cc1ccc(OCCSc2nc3ccccc3n2CC(=O)N2CCOCC2)cc1,-1.7%
COCCNC(=O)c1ccc2nc(CCc3ccccc3)oc2c1,-4.5%
CCOC(=O)c1cnc2c(OC)cccc2c1N1CCN(c2ccccc2F)CC1,-2.2%
Cc1nn(S(=O)(=O)c2ccc(Cl)cc2)c(C)c1S(=O)(=O)N1CCCCCC1,0.0%
CCOc1ccc(NC(=O)CSc2nc3c([nH]c4ccccc43)c(=O)n2-c2cc(C)cc(C)c2)cc1,-4.9%
CCOc1ccc(C(=O)Nc2cccc(-c3nc4cccnc4s3)c2C)cc1OCC,-1.9%
COc1ccc(C)cc1Nc1nc2c(S(=O)(=O)c3cccc(Cl)c3)nnn2c2ccsc12,?
CCCn1c(=N)c(C(=O)NCc2cccnc2)cc2c(=O)n3ccccc3nc21,3.8%
COc1ccc(-n2cc(C(=O)NCc3ccccc3)c3ccccc3c2=O)cc1,-7.1%
CCCS(=O)(=O)c1c(S(=O)(=O)CCC)c2cc(C(C)(C)C)ccn2c1C(=O)c1ccc(C)cc1,-1.2%
CCOC(=O)c1sc(NC(=O)COc2ccccc2Cl)c(C(=O)OCC)c1C,-3.1%
CCCS(=O)(=O)N1CC(=O)N(c2cccc(Cl)c2C)C(C)(C(=O)NC2CCCC2)C1 (stereo unspecified),-2.5%
COc1cc(C(=O)NCc2nnnn2-c2ccc(C)c(C)c2)cc(OC)c1OC,-1.4%
O=C(CCCCn1c(=O)c2ccccc2n(Cc2ccccc2Cl)c1=O)NCc1ccc2c(c1)OCO2,-6.2%
CCCN(CCC)CCNC(=O)c1ccc2c(c1)NC(=O)C(CS(=O)(=O)Cc1cccc(Br)c1)N2 (stereo unspecified),2.8µM*
Cc1ccc(-c2nc(CCNC(=O)C(=O)Nc3ccc(C)c(C)c3)cs2)cc1,-1.4%
COc1ccc(-c2onc(C)c2C)cc1S(=O)(=O)NCc1ccco1,0.1%
COc1ccc(N(CC(=O)N2CCN(c3ccccc3)CC2)S(=O)(=O)c2c(C)nn(C)c2C)cc1,0.3%

Another view of 4 compounds above.
COc1ccc(-n2cc(C(=O)NCc3ccccc3)c3ccccc3c2=O)cc1
- ClpP mod = -7.1%
CCCS(=O)(=O)c1c(S(=O)(=O)CCC)c2cc(C(C)(C)C)ccn2c1C(=O)c1ccc(C)cc1
- ClpP mod = -1.2%
CCOC(=O)c1sc(NC(=O)COc2ccccc2Cl)c(C(=O)OCC)c1C
- ClpP mod = -3.1%
CCCS(=O)(=O)N1CC(=O)N(c2cccc(Cl)c2C)C(C)(C(=O)NC2CCCC2)C1 (stereo unspecified)
- ClpP mod = -2.5%

Other records follow:
Compound,ClpP mod
CCN(CC)c1ccc(C(=O)NCc2ccc3c(c2)CCN3C(C)=O)cc1,-3.9%
Cc1cc(C)cc(NC(=O)C(=O)NCC(c2cccnc2)N2CCOCC2)c1 (stereo unspecified),-1.8%
CCCCn1c(=O)c2oc3ccccc3c2n(CC(=O)Nc2ccccc2OC)c1=O,32%
Cc1cn2c(=O)cc(COC(=O)COc3ccc(F)cc3)nc2s1,-19%
CCOc1ccc(CNC(=O)c2ccc(-c3nc(CS(=O)(=O)c4ccccc4)c(C)o3)cc2)cc1,-17%
CCOCCCNc1ncnc2onc(C)c12,0.2%
CCc1ccc(-n2c(=O)c3cccnc3n2CC(=O)NCc2ccccc2)cc1,4.4%
Cc1ccc(CCNC(=O)c2c3c(nc4ccccc24)C(=O)N(C2CCCCC2)C3)cc1,-13%
CCC(=O)N1c2ccccc2CC1C(=O)NCCc1ccc(Cl)cc1 (stereo unspecified),0.0%
COc1ccc(Cc2nc3ccc(C(=O)NCCCN4CCN(C)CC4)cc3o2)cc1,-14%
CCOc1ccc(S(=O)(=O)c2c(C(=O)c3ccc(C)c(C)c3)cnc3ccccc23)cc1,-6.8%
Cc1[nH]c2ccccc2c1C(c1ccccc1)c1cccs1 (stereo unspecified),-4.1%
O=C(CSc1nc2c([nH]c3ccccc32)c(=O)n1-c1cccc(Cl)c1)NCC1CCCO1 (stereo unspecified),-2.4%
COc1ccc(NC(=O)c2coc(=O)c3ccccc23)cc1OC,18%
Cc1ccc(OC(=O)CSc2nnc(CNC(=O)c3ccccc3)o2)cc1,-1.0%
Cc1noc2ncnc(Nc3ccc(F)cc3)c12,-3.5%
CCOc1ccc(NC(=O)c2c(C)oc3nc(C)nc(N4CCCC4)c23)cc1,1.6%
Cc1ccc(NC(=O)Cn2nnc(-c3nc(-c4ccncc4)no3)c2N)cc1,4.5%

Not all compounds are listed (hit frequency here may not be typical).
